High-throughput results (PubChem)
Insulin prom inh = TRM-6 insulin promoter activity inhibition; inhibition, % at 2 µM; AID 1273; TRM-6 cells (human fetal islet line), insulin promoter-eGFP reporter, imaging; reporter expression induced with tamoxifen; 130,000 compounds, 0.9% hits;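 active means inhibition above the mean plus 3 SD, with well images judged a real hit on visual review, cut at about 60% in these data, passing the limit was not always enough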
RGS16-Gao HTS = modulates binding between human RGS16 and Galphao. O15492+P09471. bead-based flow cytometry RGS16-Galphao binding, fluorescence; actives lie on both sides. binding response (% of control), % at 10 µM. 220,000 compounds, 0.38% hits;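 active means below 25% or above 175%, edge rows of some plates excepted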;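 further: Galphao activated by GDP with aluminum fluoride before binding; 100% = wells without compound and 0% = beads without RGS; some results beyond the cut were filed as inactive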
Target sequence (O15492 whole entry, looked up): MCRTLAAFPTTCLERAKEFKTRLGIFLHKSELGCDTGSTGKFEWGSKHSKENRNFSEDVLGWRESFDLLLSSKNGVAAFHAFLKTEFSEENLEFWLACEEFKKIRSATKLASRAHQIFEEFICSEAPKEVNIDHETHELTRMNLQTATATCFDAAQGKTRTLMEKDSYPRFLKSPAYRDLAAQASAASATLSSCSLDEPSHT
Target sequence (P09471 whole entry, looked up): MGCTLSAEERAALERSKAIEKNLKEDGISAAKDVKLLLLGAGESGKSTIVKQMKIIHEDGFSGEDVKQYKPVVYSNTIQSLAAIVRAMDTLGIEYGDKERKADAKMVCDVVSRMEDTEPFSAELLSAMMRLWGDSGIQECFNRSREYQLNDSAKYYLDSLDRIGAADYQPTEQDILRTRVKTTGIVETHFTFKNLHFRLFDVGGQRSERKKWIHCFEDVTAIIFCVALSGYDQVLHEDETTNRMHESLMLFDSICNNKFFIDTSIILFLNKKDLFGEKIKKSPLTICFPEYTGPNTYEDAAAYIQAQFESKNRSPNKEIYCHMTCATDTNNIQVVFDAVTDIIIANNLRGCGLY
PKD1 kinase inh = inhibitors of human PKD1 kinase | Q15139 | inhibition, %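 (about 10 µM by stock and volumes)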 | AID 797 | PKD1 kinase fluorescence polarization assay | 200,000 compounds, 0.056% hits;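 active means inhibition of 50% or more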;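 further: controls were vehicle for no effect and a reference inhibitor for full effect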
HSV replic up = increases HSV replication in cells. HSV replication augmentation in cells, fold increase. maximum fold increase. 220,000 compounds, 0.005% hits;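 active means peak rise of 1.5-fold or more in the series; tested in PC3 cells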;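 further: first round at 10 µM; read as green reporter fluorescence; hits show the peak of a series up to 25 µM; 1 = signal of infected wells without compound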
GALR2 ag = activates the human galanin receptor 2 | O43603 | GALR2-expressing cells, agonist activation read-out | activation, %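 (tested at 5 µM)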 | 140,000 compounds, 0.48% hits | AID 803;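 active means above mean plus 3 SD of all compounds, about 5% in these data, not always enough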;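 further: 0% = vehicle buffer wells and 100% = reference agonist at full effect; tested in CHO reporter cells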
Target sequence (O43603 whole entry, looked up): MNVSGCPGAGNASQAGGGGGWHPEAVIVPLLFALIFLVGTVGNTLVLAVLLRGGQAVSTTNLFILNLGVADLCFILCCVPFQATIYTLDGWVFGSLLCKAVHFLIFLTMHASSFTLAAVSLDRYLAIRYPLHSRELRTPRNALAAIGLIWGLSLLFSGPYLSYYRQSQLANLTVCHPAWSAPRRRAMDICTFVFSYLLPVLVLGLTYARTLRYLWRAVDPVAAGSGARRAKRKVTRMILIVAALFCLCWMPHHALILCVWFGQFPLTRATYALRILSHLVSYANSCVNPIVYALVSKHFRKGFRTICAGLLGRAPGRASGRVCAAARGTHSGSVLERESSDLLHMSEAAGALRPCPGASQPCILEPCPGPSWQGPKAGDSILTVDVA
Insulin prom inh cell count = recorded beside Insulin prom inh, whose call it bears; normalized cell count, %; measured here: cell count, toxicity; reference of the scale not given here;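 cells exposed to compound for 48 h; stained nuclei by imaging scaled within each plate; lower means fewer cells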
HSV replic up primary fold = recorded beside HSV replic up, whose call it bears; fold increase; compound at 10 µM; measured here: primary screen fold increase 10 uM; tested in PC3 cells;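 GFP signal in the first replicate; 1 = infected wells without compound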
* marks the source's active call; other numbers are inactive results.

O=C(O)c1cccc(Nc2nc(-c3cccnc3)nc3ccccc23)c1 was read as Insulin prom inh 29, RGS16-Gao HTS 100, PKD1 kinase inh 20, HSV replic up inactive, GALR2 ag -0.1, Insulin prom inh cell count 107 and HSV replic up primary fold 0.97.
Screening S=C(NC12CC3CC(CC(C3)C1)C2)N1CCOCC1 returned RGS16-Gao HTS 108, PKD1 kinase inh -1, HSV replic up inactive and HSV replic up primary fold 0.9.
`O=C1C(=C2CCCCC2)SC(=S)N1Cc1ccco1` gave Insulin prom inh 4, RGS16-Gao HTS 95, PKD1 kinase inh -3, HSV replic up inactive, GALR2 ag -2.1, Insulin prom inh cell count 104 and HSV replic up primary fold 0.84.
Screening Cc1ccc(-c2nc(CS(=O)CC(=O)NCCCN3CC(C)CC(C)C3)c(C)o2)cc1 (stereo unspecified) returned RGS16-Gao HTS 99, PKD1 kinase inh -6, HSV replic up inactive, GALR2 ag -2.5 and HSV replic up primary fold 0.8.
For CC(=O)Nc1ccccc1P(=O)(c1ccccc1)c1ccccc1OC(C)=O (stereo unspecified) the results were RGS16-Gao HTS 102, HSV replic up inactive and HSV replic up primary fold 1.2.
Screening COC(=O)C1=CN(Cc2ccc(OC)cc2)C=C(C(=O)OC)C1c1ccsc1 returned RGS16-Gao HTS 102, PKD1 kinase inh 0, HSV replic up inactive and HSV replic up primary fold 1.1.
CCN(CC)CCOc1cc2c(nn1)Oc1ccccc1N2C was read as Insulin prom inh -27, RGS16-Gao HTS 101, PKD1 kinase inh 0, HSV replic up inactive, GALR2 ag -4.5, Insulin prom inh cell count 86 and HSV replic up primary fold 0.61.
Screening O=C(O)c1ccccc1NS(=O)(=O)c1ccc(NNC(=S)Nc2ccc(OC(F)F)cc2)c([N+](=O)[O-])c1 returned Insulin prom inh -8, RGS16-Gao HTS 69, PKD1 kinase inh 2, HSV replic up inactive, Insulin prom inh cell count 70 and HSV replic up primary fold 0.92.
`CCOc1cc(-c2nnc(-c3ccco3)o2)cc(OCC)c1OCC` gave Insulin prom inh 9, RGS16-Gao HTS 96, PKD1 kinase inh -9, HSV replic up inactive, GALR2 ag -0.7, Insulin prom inh cell count 92 and HSV replic up primary fold 0.55.
CCc1cc2c(=O)c(-c3nc4ccccc4[nH]3)coc2c(CN2CCC(C)CC2)c1O was read as PKD1 kinase inh -10 and GALR2 ag -2.6.
For COc1cc(/C=C2\SC(=S)N(CC(=O)Nc3ccccn3)C2=O)cc(OC)c1OC the results were RGS16-Gao HTS 102, PKD1 kinase inh -1, HSV replic up inactive, GALR2 ag 0.5 and HSV replic up primary fold 0.88.
Cc1ccc(CN2C(=O)c3ccccc3NC23CCN(Cc2ccccc2)CC3)cc1 was read as Insulin prom inh -71, RGS16-Gao HTS 100, PKD1 kinase inh -8, HSV replic up inactive, Insulin prom inh cell count 84 and HSV replic up primary fold 0.93.
Cc1ccc(-c2cc(-c3ccccc3Cl)c(C#N)c(N)n2)o1 was read as Insulin prom inh -19, RGS16-Gao HTS 91, PKD1 kinase inh 2, HSV replic up inactive, GALR2 ag 3.8, Insulin prom inh cell count 130 and HSV replic up primary fold 1.1.
For CC(=O)Nc1ccc(S(=O)(=O)n2cnc(C)c2)cc1 the results were RGS16-Gao HTS 101, PKD1 kinase inh 11, HSV replic up inactive, GALR2 ag -1.4 and HSV replic up primary fold 0.89.
`COC(=O)c1ccc(C)c(NC(=O)CN2C(=O)c3ccccc3S2(=O)=O)c1` gave Insulin prom inh 36, RGS16-Gao HTS 45, PKD1 kinase inh -6, HSV replic up inactive, GALR2 ag -0.6, Insulin prom inh cell count 206 and HSV replic up primary fold 0.99.
`CN(C)C(=O)CCSc1nnc(-c2ccco2)o1` gave RGS16-Gao HTS 94, PKD1 kinase inh -2, HSV replic up inactive and HSV replic up primary fold 0.95.
Screening Cc1cccc(N2CC(c3nc4ccccc4n3C)CC2=O)c1C (stereo unspecified) returned Insulin prom inh -35, RGS16-Gao HTS 103, PKD1 kinase inh -7, HSV replic up inactive, GALR2 ag 1.3, Insulin prom inh cell count 111 and HSV replic up primary fold 0.81.
`O=C(NCc1nc2ccccc2[nH]1)c1cc2ccccc2oc1=O` gave RGS16-Gao HTS 95, PKD1 kinase inh -9, HSV replic up inactive, GALR2 ag 1.6 and HSV replic up primary fold 1.
C=CCn1c(SCCOc2ccc(OC)cc2)nnc1C(C)NC(=O)Cc1ccc(OC)cc1 (stereo unspecified) was read as Insulin prom inh -271, RGS16-Gao HTS 103, PKD1 kinase inh -9, HSV replic up inactive, GALR2 ag -0.3, Insulin prom inh cell count 115 and HSV replic up primary fold 0.93.
Cc1cc(C)nc(SCc2nnc(SCC(N)=O)o2)n1 was read as Insulin prom inh 6, RGS16-Gao HTS 98, PKD1 kinase inh -1, HSV replic up inactive, Insulin prom inh cell count 118 and HSV replic up primary fold 1.1.
Cc1ccc(CN2C3=NC(=O)CN3c3ccccc32)cc1 was read as Insulin prom inh 19, RGS16-Gao HTS 100, PKD1 kinase inh -8, HSV replic up inactive, GALR2 ag -2.2, Insulin prom inh cell count 147 and HSV replic up primary fold 0.95.
Cc1cc(C)cc(N(CC(=O)O)S(=O)(=O)c2c(C)noc2C)c1 was read as Insulin prom inh -32, RGS16-Gao HTS 101, PKD1 kinase inh -7, HSV replic up inactive, GALR2 ag -2.1, Insulin prom inh cell count 159 and HSV replic up primary fold 0.72.
O=C(Nc1ccccc1)Nc1cccc2nsnc12 was read as Insulin prom inh 3, RGS16-Gao HTS 109, PKD1 kinase inh 7, HSV replic up inactive, Insulin prom inh cell count 127 and HSV replic up primary fold 0.89.
For CC(C)(C)Nc1nc(Cl)nc(N(C#N)CN2C(=O)c3ccccc3S2(=O)=O)n1 the results were Insulin prom inh 18, RGS16-Gao HTS 106, PKD1 kinase inh -8, HSV replic up inactive, Insulin prom inh cell count 102 and HSV replic up primary fold 0.83.
For O=C(Nc1ccc2c(c1)OCO2)C(c1ccccc1)N1CCC2(CC1)OCCO2 (stereo unspecified) the results were Insulin prom inh 0, RGS16-Gao HTS 98, PKD1 kinase inh -8, HSV replic up inactive, GALR2 ag -1.3, Insulin prom inh cell count 147 and HSV replic up primary fold 0.97.
For CCOC(=O)c1c(NC(=S)Nc2ccc(OC)cc2)sc2c1CCC2 the results were Insulin prom inh 17, RGS16-Gao HTS 104, PKD1 kinase inh -6, HSV replic up inactive, GALR2 ag -0.3, Insulin prom inh cell count 108 and HSV replic up primary fold 0.91.
Screening CC(C)OC(=O)Nc1ccc2c(c1)N(C(=O)N1CCN(C)CC1)c1ccccc1CC2 returned RGS16-Gao HTS 102, HSV replic up inactive and HSV replic up primary fold 0.92.
Screening Cn1cc(C(=O)C(F)(F)F)c2ccccc21 returned Insulin prom inh 52, RGS16-Gao HTS 100, PKD1 kinase inh 6, HSV replic up inactive, GALR2 ag -3.9, Insulin prom inh cell count 56 and HSV replic up primary fold 0.9.
For Cc1c(SCCO)c(=O)[nH]c2cc3c(cc12)OCO3 the results were RGS16-Gao HTS 100, PKD1 kinase inh -2, HSV replic up inactive, GALR2 ag -1.8 and HSV replic up primary fold 0.99.
For Nn1c(Cc2ccccc2)nc2sc3c(c2c1=O)CCC3 the results were RGS16-Gao HTS 100, HSV replic up inactive and HSV replic up primary fold 0.94.
CCO[C@H]1OC(C(=O)N2CCN(Cc3ccccc3)CC2)=C[C@@H](c2ccc(C(F)(F)F)cc2)[C@@H]1CCCO was read as RGS16-Gao HTS 103, PKD1 kinase inh 4, HSV replic up inactive and HSV replic up primary fold 0.99.
`Cc1cccc(N(C(=O)c2ccc(CN3CCOCC3)o2)C(C(=O)NC(C)(C)C)c2ccc(F)cc2)c1` (stereo unspecified) gave Insulin prom inh -267, RGS16-Gao HTS 103, PKD1 kinase inh -16, HSV replic up inactive, GALR2 ag -1.6, Insulin prom inh cell count 83 and HSV replic up primary fold 0.97.
For CCOC(=O)CSc1nc2c(c(=O)n(Cc3ccccc3Cl)c(=O)n2C)n1C the results were RGS16-Gao HTS -56*, PKD1 kinase inh -10, HSV replic up inactive, GALR2 ag -0.1 and HSV replic up primary fold 0.93.
O=C(N/N=C/c1c[nH]c2ccc(Br)cc12)c1ccc2c(c1)OCO2 was read as RGS16-Gao HTS 105, PKD1 kinase inh 1, HSV replic up inactive and HSV replic up primary fold 0.78.
Screening Cn1cccc1C1Nc2ccccc2NC2=C1C(=O)CC(C)(C)C2 (stereo unspecified) returned Insulin prom inh 23, RGS16-Gao HTS 50, PKD1 kinase inh -4, HSV replic up inactive, GALR2 ag -2.3, Insulin prom inh cell count 113 and HSV replic up primary fold 1.
Screening COCC(=O)n1nc(-c2ccccc2)nc1NCc1ccc(F)cc1 returned RGS16-Gao HTS 101, PKD1 kinase inh -20, HSV replic up inactive, GALR2 ag -2.3 and HSV replic up primary fold 0.87.
Nc1cc(OCC(F)(F)F)cc([N+](=O)[O-])c1 was read as Insulin prom inh -8, RGS16-Gao HTS 107, PKD1 kinase inh -4, HSV replic up inactive, GALR2 ag -0.4, Insulin prom inh cell count 115 and HSV replic up primary fold 0.84.
COC(=O)c1c(C(C)=O)c(C)n(C)c1C was read as RGS16-Gao HTS 105, HSV replic up inactive and HSV replic up primary fold 1.
`Cc1ccc2nc(C3CCN(C(=O)NCc4ccccc4)CC3)[nH]c2c1` gave RGS16-Gao HTS 100, PKD1 kinase inh 6, HSV replic up inactive, GALR2 ag -0.6 and HSV replic up primary fold 0.91.
Screening O=C(NCc1ccc(F)cc1)Nc1ccc(Cl)cc1 returned RGS16-Gao HTS 97, PKD1 kinase inh 4, HSV replic up inactive and HSV replic up primary fold 0.93.
CC(C)(C)c1cc(C(C)(C)C)n(-c2ccccc2)n1 was read as Insulin prom inh -15, RGS16-Gao HTS 104, PKD1 kinase inh 11, HSV replic up inactive, GALR2 ag -0.3, Insulin prom inh cell count 138 and HSV replic up primary fold 1.1.
For COc1cc(/C=C(\C#N)C(=O)NCc2ccccc2)ccc1OCc1ccc(C(=O)O)cc1 the results were RGS16-Gao HTS 104, HSV replic up inactive and HSV replic up primary fold 0.89.
Screening CCOC(=O)c1cn(CC(=O)Nc2ccc(CC)cc2)nn1 returned RGS16-Gao HTS 105, PKD1 kinase inh 14, HSV replic up inactive, GALR2 ag -2.5 and HSV replic up primary fold 0.75.
For CC(C)(C)OC(=O)N1CCC(C(=O)N2CCOCC2)CC1 the results were Insulin prom inh 11, RGS16-Gao HTS 93, PKD1 kinase inh -9, HSV replic up inactive, GALR2 ag -0.9, Insulin prom inh cell count 89 and HSV replic up primary fold 0.97.
For COc1cccc(CNC(=O)C(CCSC)NS(=O)(=O)c2ccc3c(c2)oc(=O)n3C)c1 (stereo unspecified) the results were Insulin prom inh -100, RGS16-Gao HTS 102, PKD1 kinase inh -9, HSV replic up inactive, GALR2 ag 0.1, Insulin prom inh cell count 91 and HSV replic up primary fold 0.9.
For O=C(NC12CC3CC(CC(C3)C1)C2)N1CCN(c2nc(-c3ccccc3)cs2)CC1 the results were Insulin prom inh 6, RGS16-Gao HTS 98, PKD1 kinase inh -5, GALR2 ag -0.8 and Insulin prom inh cell count 69.
`COc1ccccc1NC(=O)COC(=O)Cc1cccs1` gave Insulin prom inh -50, RGS16-Gao HTS 103, PKD1 kinase inh -5, HSV replic up inactive, Insulin prom inh cell count 91 and HSV replic up primary fold 1.

2 entries drawn at random from the list so far:
CC(C)(C)c1cc(C(C)(C)C)n(-c2ccccc2)n1 was read as Insulin prom inh -15, RGS16-Gao HTS 104, PKD1 kinase inh 11, HSV replic up inactive, GALR2 ag -0.3, Insulin prom inh cell count 138 and HSV replic up primary fold 1.1.
Screening O=C(NCc1ccc(F)cc1)Nc1ccc(Cl)cc1 returned RGS16-Gao HTS 97, PKD1 kinase inh 4, HSV replic up inactive and HSV replic up primary fold 0.93.

Of the compounds above, 5 contain a furan ring, fused or not.
`O=C1C(=C2CCCCC2)SC(=S)N1Cc1ccco1` gave Insulin prom inh 4, RGS16-Gao HTS 95, PKD1 kinase inh -3, HSV replic up inactive, GALR2 ag -2.1, Insulin prom inh cell count 104 and HSV replic up primary fold 0.84.
`CCOc1cc(-c2nnc(-c3ccco3)o2)cc(OCC)c1OCC` gave Insulin prom inh 9, RGS16-Gao HTS 96, PKD1 kinase inh -9, HSV replic up inactive, GALR2 ag -0.7, Insulin prom inh cell count 92 and HSV replic up primary fold 0.55.
Cc1ccc(-c2cc(-c3ccccc3Cl)c(C#N)c(N)n2)o1 was read as Insulin prom inh -19, RGS16-Gao HTS 91, PKD1 kinase inh 2, HSV replic up inactive, GALR2 ag 3.8, Insulin prom inh cell count 130 and HSV replic up primary fold 1.1.
`CN(C)C(=O)CCSc1nnc(-c2ccco2)o1` gave RGS16-Gao HTS 94, PKD1 kinase inh -2, HSV replic up inactive and HSV replic up primary fold 0.95.
`Cc1cccc(N(C(=O)c2ccc(CN3CCOCC3)o2)C(C(=O)NC(C)(C)C)c2ccc(F)cc2)c1` (stereo unspecified) gave Insulin prom inh -267, RGS16-Gao HTS 103, PKD1 kinase inh -16, HSV replic up inactive, GALR2 ag -1.6, Insulin prom inh cell count 83 and HSV replic up primary fold 0.97.
